Screens: PubChem BioAssay, several laboratories
Mtb bLac sens – beta-lactam sensitization of Mtb H37Rv, H37Rv; M. tuberculosis H37Rv growth with meropenem, percent inhibition; hits of this screen are not shown here; inhibition, % at 25 µM; 330,000 tested, 0.27% active; AID 434955, 2010;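 active = about 74% or more and at least 40 points above the plate without the antibiotic, then above 30% in a dose series; inconclusive = first-round hits that could not be retested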;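 note: growth measured after seven days incubation then overnight dye step; 0% = bacteria only wells and 100% = bacteria with antibiotic; twin plates without the antibiotic show which effects depend on it; some results filed as inactive read as strong as hits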
RecA intein inh – Mtb RecA intein splicing inhibitors, primary screen, biochemical, fluorescence, HTS; AID 2221, 2009; Protein RecA (Mycobacterium tuberculosis (strain ATCC 25618 / H37Rv)), P9WHJ3; 290,000 tested, 0.75% active; inhibition, %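 (about 9 µM by stock and volumes)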; cell-free RecA intein splicing; in the data active = inhibition above about 30%; inconclusive = no clear call, values can overlap the other calls;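 note: 0% = vehicle wells and 100% = reference inhibitor control wells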
Target sequence (P9WHJ3 whole entry, looked up): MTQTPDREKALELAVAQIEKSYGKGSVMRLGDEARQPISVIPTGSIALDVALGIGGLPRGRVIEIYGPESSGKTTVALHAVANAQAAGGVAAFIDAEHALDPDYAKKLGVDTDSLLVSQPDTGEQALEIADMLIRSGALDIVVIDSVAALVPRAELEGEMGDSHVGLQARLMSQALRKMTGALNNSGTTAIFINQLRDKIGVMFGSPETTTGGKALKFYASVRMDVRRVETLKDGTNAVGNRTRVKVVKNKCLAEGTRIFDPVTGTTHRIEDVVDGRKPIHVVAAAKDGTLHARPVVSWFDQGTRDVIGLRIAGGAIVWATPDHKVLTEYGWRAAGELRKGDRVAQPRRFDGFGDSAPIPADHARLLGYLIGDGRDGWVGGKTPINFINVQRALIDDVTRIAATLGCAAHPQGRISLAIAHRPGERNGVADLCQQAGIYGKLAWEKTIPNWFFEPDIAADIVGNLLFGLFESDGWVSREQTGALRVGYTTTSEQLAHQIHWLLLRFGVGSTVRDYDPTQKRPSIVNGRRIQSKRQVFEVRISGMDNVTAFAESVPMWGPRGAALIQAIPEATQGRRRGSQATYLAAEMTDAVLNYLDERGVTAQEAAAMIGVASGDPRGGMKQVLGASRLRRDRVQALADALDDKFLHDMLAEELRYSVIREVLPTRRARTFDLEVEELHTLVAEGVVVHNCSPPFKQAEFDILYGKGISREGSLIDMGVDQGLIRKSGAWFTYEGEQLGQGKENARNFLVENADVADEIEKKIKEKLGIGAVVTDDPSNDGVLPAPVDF
YopH PTP inh – YopH tyrosine phosphatase inhibitors, primary screen, biochemical, fluorescence Ex485/Em525; inhibition, %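 (about 10 µM by stock and volumes)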; 140,000 tested, 0.16% active; AID 898, 2007;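 active = inhibition of 50% or more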;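 note: controls were vehicle for no effect and minimum signal wells for full effect; inactives centre near -20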
Mtb H37Rv – M. tuberculosis H37Rv growth inhibitors, H37Rv strain (AID 1626). 220,000 tested, 0.95% active. M. tuberculosis H37Rv growth inhibition; higher % means a stronger effect. inhibition, % at 10 µM, or IC50 in µM where a hit was titrated;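 active = confirmed in a dose series; inconclusive = inhibition above 80% but not taken into the dose series; inactive = below 80% or under 30% at every dose of the series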;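 note: bacteria incubated seven days before Alamar blue readout; 0% = bacteria only wells and 100% = bacteria with antibiotic wells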
Arbovirus inh – antivirals against arbovirus infection, primary screen, cell-based, full library, 10K replicate subset; arbovirus infection cell-based antiviral screen; inhibition, % at 10 µM; 200,000 tested, 0.37% active; AID 1251, 2008;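 active = inhibition from about 30%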;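 note: bluetongue infection of BSR cells; cell survival read as ATP light after 72 h; 0% = infected wells without compound and 100% = uninfected wells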
Arbovirus inh repeat – second read-out of Arbovirus inh, no call of its own (marks repeat the call); inhibition, %; measured here: 10K subset replicate screen; many hits read low in the repeat;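 first of two repeat runs on a subset; 0% = infected and 100% = uninfected wells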
An asterisk follows results filed as active; ? = inconclusive; nt = no result given. A portion of the library; the hit share may differ from the screen's.

SMILES	Mtb bLac sens	RecA intein inh	YopH PTP inh	Mtb H37Rv	Arbovirus inh	others
CSc1ccc(Cl)c(C(=O)OCC(=O)N2CC(C)OC(C)C2)c1 (stereo unspecified)	40	-2.9	-45	4%	3
CC(C)C(=O)NC(=S)Nc1ccccc1C(=O)Nc1ccccc1	-2	1.1	-1	-13%	-5
COC(=O)c1ccccc1NC(=O)CSc1nncn1C	4	-0.7	nt	-1%	4
CSc1ccccc1C(=O)C1CCCN(C(=O)CCc2cccnc2)C1 (stereo unspecified)	-1	-0.2	nt	-5%	0
O=C(c1ccc(Cl)c(Cl)c1)N1CCC(=O)N(C(COCc2cccc(C(F)(F)F)c2)Cc2ccccc2)CC1 (stereo unspecified)	-8	16	-8	7%	-22
COc1ccc(NC(=O)C2C(=O)NC3(C)CC2c2ccccc2O3)cc1 (stereo unspecified)	-4	-1.2	-4	-1%	1
O=C(CCNS(=O)(=O)c1cccc2nonc12)Nc1ccc(Cl)cc1	3	6.0	nt	nt	nt
COc1ccc(C2=NCCn3cccc32)c(OC)c1	6	-0.3	-5	5%	2
CCOC(=O)c1c(-c2ccc(OC)cc2)csc1/N=C/C1=C(O)CCCC1=O	9	6.5	-38	5%	-15
CCN(CC)S(=O)(=O)c1ccc(-c2nnc(SCC(=O)Nc3cc(OC)cc(OC)c3)o2)cc1	-2	3.8	-16	-12%	-2
CCOC(=O)c1ccc(NC(=O)CSc2n[nH]c(-c3ccncc3)n2)cc1	66	0.2	-25	48%	3
CCOc1cc2[nH]c(=S)n(CCC(=O)NCc3ccco3)c(=O)c2cc1OCC	2	-1.1	nt	6%	-3
CCc1nnc(NC(=O)c2ccc(Cl)nc2)s1	8	-0.9	nt	5%	-7
O=C(COC(=O)c1ccc(O)cc1O)Nc1cc(-c2ccccc2)nn1-c1ccccc1	-10	14	nt	nt	nt
NC(=O)c1ccccc1NC(=O)COc1ccc2c(c1)OCO2	0	-2.2	nt	nt	nt
CCN(CC)S(=O)(=O)c1cc(C(=O)Oc2ccccc2OC)ccc1OC	-2	-1.4	-26	-3%	0	Arbovirus inh repeat=5
COc1ccc(CCNC(=O)CCCCCn2c(SCC(N)=O)nc3cc4c(cc3c2=O)OCO4)cc1OC	-7	-0.8	nt	2%	5
CCN1C(=O)NC(=O)/C(=C\c2cn(CC(=O)N3CCCCC3C)c3ccccc23)C1=O (stereo unspecified)	?	2.0	nt	nt	nt
CCCS(=O)(=O)n1nc(-c2ccc(OC)cc2OC)cc1N	-1	0.6	-27	nt	8	Arbovirus inh repeat=22
Cc1ccc(NS(=O)(=O)c2ccc(C3CCCCC3)cc2)cc1	5	11	1	1%	-48
O=C(NCc1ccc(F)cc1)C1CC(=O)N(C2CCCCC2)C1 (stereo unspecified)	-5	-0.3	nt	nt	nt
Cc1ccc(-n2cc(CN3CCC(CO)(Cc4ccccc4)CC3)cn2)cc1	-1	-0.3	nt	1%	-14
Cc1ccc2c(c1)C1C3CCC(C3)C1S(=O)N2 (stereo unspecified)	2	nt	nt	-5%	-3
CCC1(c2ccccc2)NC(=O)N(CC(=O)N(C)Cc2ccccc2)C1=O (stereo unspecified)	-4	2.9	nt	nt	nt
Cn1c(=O)n(C)c2cc(NS(=O)(=O)c3ccc(C(C)(C)C)cc3)ccc21	7	1.6	nt	7%	4
COc1cc(C2C(=O)N(C3CCCC3)CC(=O)N2Cc2ccco2)ccc1OC(C)C (stereo unspecified)	-10	-1.4	-31	-12%	5
COc1ccc(NC2CCN(C3CC(=O)N(c4ccc(F)c(Cl)c4)C3=O)CC2)cc1 (stereo unspecified)	13	2.1	-16	-1%	7
O=C1CC(=O)CC(c2ccccc2)C1	2	-1.8	nt	-6%	0
O=C(CCCc1nc2ccccc2s1)N1CCN(S(=O)(=O)c2cccs2)CC1	-9	1.1	-29	-1%	4
CCCCOc1ccc(N2C(=O)CC(NCc3ccncc3)C2=O)cc1 (stereo unspecified)	-3	0.6	nt	-4%	0
CCN1CCN(c2cc(N3CCCC3)c([N+](=O)[O-])cc2F)CC1	3	-1.8	-22	4%	-6
COCC(C)NC(=O)c1cc(-c2cccc(OC)c2)on1 (stereo unspecified)	-6	-0.9	-41	nt	-4
O=C(CSc1nc(C2CCCCC2)nc2ccccc12)NCc1ccco1	-6	14	nt	0%	13
CCC1(CC)C(=O)C2=C3C1[C@H](C(=O)OC)C=C(C(=O)OC)C[C@H]3n1c(=O)n(C)c(=O)n1[C@H]2C (stereo partly specified)	-6	-3.1	nt	3%	nt
COC(=O)c1ccc(CNC(=O)c2ccc(OCC(=O)N3CCOCC3)c(OC)c2)cc1	-2	-3.8	nt	nt	nt
Cc1ccc(NC(=O)C2CCCN2C(=O)Oc2ccccc2)c(C)c1 (stereo unspecified)	-2	-0.1	nt	-7%	6

Taken from the listing for reference:
SMILES	Mtb bLac sens	RecA intein inh	YopH PTP inh	Mtb H37Rv	Arbovirus inh	others
NC(=O)c1ccccc1NC(=O)COc1ccc2c(c1)OCO2	0	-2.2	nt	nt	nt
CCN(CC)S(=O)(=O)c1cc(C(=O)Oc2ccccc2OC)ccc1OC	-2	-1.4	-26	-3%	0	Arbovirus inh repeat=5

Other results follow:
SMILES	Mtb bLac sens	RecA intein inh	YopH PTP inh	Mtb H37Rv	Arbovirus inh	others
CC(=O)Nc1ccc(S(=O)(=O)N(Cc2ccccc2)c2ccccn2)cc1	3	-0.1	nt	nt	nt
Cc1ccc(CNC(=O)C2CC(c3cccc([N+](=O)[O-])c3)=NO2)o1 (stereo unspecified)	-4	0.6	-10	-6%	-5
Cc1cc(C)cc(C(N)=Nc2cccc(C#N)c2)c1	4	-0.1	nt	nt	nt
Cc1ccnn1Cc1cc(C(=O)O)c2ccccc2n1	2	1.2	nt	2%	4
N#Cc1ccc(NC(=O)Cn2cnc(S(=O)(=O)N3CCOCC3)c2)cc1	5	-4.0	nt	nt	nt
CCOC(=O)NC(Nc1nnc(SCC)s1)(C(F)(F)F)C(F)(F)F	1	1.5	-26	-3%	3	Arbovirus inh repeat=6
CCN1CC(c2ccccc2)C(c2ccc(Cl)cc2)=N1 (stereo unspecified)	8	4.1	-30	8%	8
Cc1ccc2nc(Nc3ccc(Cl)cc3)c3nncn3c2c1	10	-1.1	nt	nt	nt
Cc1ccc(CC(NC(=O)c2ccccc2)C(=O)NC(CC(C)C)C(=O)O)cc1 (stereo unspecified)	-7	-3.5	nt	1%	-1
COCCNC(=O)CCCn1c(=O)c2cc(OC)c(OC)cc2n(CC(=O)Nc2ccc(F)cc2)c1=O	-7	-5.7	nt	-3%	0
O=[N+]([O-])c1cccc(-c2ccc(CN3CCN(c4ccccc4)CC3)o2)c1	-1	5.7	nt	nt	nt
CC(=O)c1ccc([N+](=O)[O-])c(CS(=O)(=O)c2ccccc2)c1	-2	-3.3	nt	nt	nt
Cc1cc(N/C=C/C(=O)c2ccccc2)ccc1Br	97	-2.8	nt	nt	nt
CCN(CC)S(=O)(=O)c1cccc(NC(=O)COC(=O)CCC(=O)c2cccs2)c1	-8	-6.4	nt	2%	8
O=C1C(Cc2ccccc2)Nc2ncnc(N3CCc4ccccc4C3)c2N1Cc1ccc(Cl)cc1 (stereo unspecified)	3	33*	nt	nt	nt
O=[N+]([O-])c1ncccc1OCc1ccc(Cl)c(Cl)c1	3	4.8	nt	nt	nt
Cc1c(C(=O)OCC(=O)N2C(C)CCCC2C)oc2ccccc12 (stereo unspecified)	-26	1.3	nt	nt	nt
CC(NC(=O)c1ccc(C23CC4CC(CC(C4)C2)C3)cc1)C(=O)O (stereo unspecified)	4	1.4	nt	-3%	9
O=[N+]([O-])c1ccc(SCCc2ccccn2)cc1	-2	3.5	nt	3%	nt
CC1CCCN(C(C(=O)NC2CCCCC2)c2cc3c(cc2[N+](=O)[O-])OCO3)C1 (stereo unspecified)	3	1.1	-34	6%	-14
CC1CCN(c2nncc3ccccc23)CC1	-7	0.2	-26	-8%	-1
O=c1cc(-c2ccccc2)c2cc(Cl)ccc2[nH]1	4	0.5	nt	nt	nt
CCCN(C(=O)c1cccc(S(=O)(=O)N2CCN(C)CC2)c1)c1c(N)n(Cc2ccccc2)c(=O)[nH]c1=O	3	-6.3	nt	nt	nt
CCOc1ccccc1N(CC(=O)Nc1ccccc1C(=O)NCc1ccco1)S(C)(=O)=O	-1	-6.2	-13	-5%	2

Part of the list above in order of heavy-atom count, high to low:
SMILES	Mtb bLac sens	RecA intein inh	YopH PTP inh	Mtb H37Rv	Arbovirus inh	others
CCCN(C(=O)c1cccc(S(=O)(=O)N2CCN(C)CC2)c1)c1c(N)n(Cc2ccccc2)c(=O)[nH]c1=O	3	-6.3	nt	nt	nt
COCCNC(=O)CCCn1c(=O)c2cc(OC)c(OC)cc2n(CC(=O)Nc2ccc(F)cc2)c1=O	-7	-5.7	nt	-3%	0
O=C1C(Cc2ccccc2)Nc2ncnc(N3CCc4ccccc4C3)c2N1Cc1ccc(Cl)cc1 (stereo unspecified)	3	33*	nt	nt	nt
CCOc1ccccc1N(CC(=O)Nc1ccccc1C(=O)NCc1ccco1)S(C)(=O)=O	-1	-6.2	-13	-5%	2
CCN(CC)S(=O)(=O)c1cccc(NC(=O)COC(=O)CCC(=O)c2cccs2)c1	-8	-6.4	nt	2%	8
CC1CCCN(C(C(=O)NC2CCCCC2)c2cc3c(cc2[N+](=O)[O-])OCO3)C1 (stereo unspecified)	3	1.1	-34	6%	-14
O=[N+]([O-])c1cccc(-c2ccc(CN3CCN(c4ccccc4)CC3)o2)c1	-1	5.7	nt	nt	nt
CC(NC(=O)c1ccc(C23CC4CC(CC(C4)C2)C3)cc1)C(=O)O (stereo unspecified)	4	1.4	nt	-3%	9
Cc1ccc2nc(Nc3ccc(Cl)cc3)c3nncn3c2c1	10	-1.1	nt	nt	nt
O=[N+]([O-])c1ncccc1OCc1ccc(Cl)c(Cl)c1	3	4.8	nt	nt	nt
O=[N+]([O-])c1ccc(SCCc2ccccn2)cc1	-2	3.5	nt	3%	nt
CC1CCN(c2nncc3ccccc23)CC1	-7	0.2	-26	-8%	-1

Next results:
SMILES	Mtb bLac sens	RecA intein inh	YopH PTP inh	Mtb H37Rv	Arbovirus inh	others
CN(C(=O)COC(=O)c1ccc([N+](=O)[O-])cc1Cl)C1CCCCC1	97	0.2	nt	79%	2
Cn1cc(CN2CCCC(C(=O)c3cc(F)ccc3F)C2)c2ccccc21 (stereo unspecified)	-5	2.0	nt	-1%	-10
CC(C)(CO)NC(=O)C12CC3CC(CC(Br)(C3)C1)C2	6	-1.4	nt	-2%	nt
Cc1cc(NC(=O)CSc2nnc(-c3ccco3)n2Cc2ccco2)no1	?	-3.3	-23	-1%	0
C=CC(C)N1C(=O)S/C(=C\c2ccc(N3CCOCC3)cc2C)C1=O (stereo unspecified)	-2	-5.0	-26	5%	0
CCOc1ccc(CCNC(=O)C(O)c2ccccc2)cc1 (stereo unspecified)	-7	-0.3	-54	1%	7
CCOCCCN(C(=O)Cn1nnc(-c2ccc(OC)c(OC)c2)n1)C(CC)C(=O)NC1CCCC1 (stereo unspecified)	-4	3.8	nt	5%	10
COC(=O)c1cc(NS(=O)(=O)c2ccc3c(c2)c(=O)n(C)c(=O)n3C)cc(C(=O)OC)c1	1	-0.3	nt	nt	nt
COc1ccccc1N1CCN(C(=O)c2n[nH]c3ccccc23)CC1	-3	-2.4	nt	3%	12
c1coc(CN(Cc2ccco2)c2ncnc3c2oc2ccccc23)c1	6	8.8	-17	6%	-14
CCCCCC1NC(=O)NC1CCCCCC(=O)O (stereo unspecified)	-1	0.8	-7	-7%	8
NC(=O)NOCc1ccc(Cl)cc1Cl	-10	-4.2	nt	-1%	10
CC(=O)OCC(=O)Nc1ccc([N+](=O)[O-])cc1Cl	3	-1.2	nt	5%	3
CS/C(=N\S(=O)(=O)c1ccc(Cl)cc1)c1ccccc1	14	-2.2	-2	2%	1
O=C(Nc1ccccc1Cl)c1ccccc1Cc1ccccc1	2	4.1	-26	7%	-5
Cc1ccc2c(c1)C1CN(C)CCC1N2C(=O)COc1ccc(N(C)C(=O)C(C)(C)C)cc1 (stereo unspecified)	-6	-7.8	nt	2%	1
CC(C)CSc1nc2ccccc2c(=O)[nH]1	-15	3.3	-50	5%	13
O=C(CCc1ccccc1)NC1CCSC1=O (stereo unspecified)	0	-1.5	-12	-10%	-2
COc1cccc(OC)c1OCC(O)CN1CCN(c2ccccc2F)CC1 (stereo unspecified)	-2	-2.3	nt	nt	nt
